# Screening data (PubChem BioAssay)
# Mtb betalactam – beta-lactam sensitization of Mtb H37Rv, H37Rv | M. tuberculosis H37Rv growth with meropenem, percent inhibition; hits of this screen are not shown here | inhibition, % at 25 µM | 330,000 tested, 0.27% active;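 active = about 74% or more and at least 40 points above the plate without the antibiotic, then above 30% in a dose series; inconclusive = first-round hits that could not be retested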;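 note: growth measured after seven days incubation then overnight dye step; 0% = bacteria only wells and 100% = bacteria with antibiotic; twin plates without the antibiotic show which effects depend on it; some results filed as inactive read as strong as hits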
# Arbovirus anti – antivirals against arbovirus infection, primary screen, cell-based, full library, 10K replicate subset | arbovirus infection cell-based antiviral screen | 200,000 tested, 0.37% active | inhibition, % at 10 µM;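 active = inhibition from about 30%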;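 note: bluetongue infection of BSR cells; cell survival read as ATP light after 72 h; 0% = infected wells without compound and 100% = uninfected wells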
# Mtb growth – M. tuberculosis H37Rv growth inhibitors, H37Rv strain (AID 1626). M. tuberculosis H37Rv growth inhibition; higher % means a stronger effect. one-dose inhibition, % at 10 µM; IC50 in µM for titrated hits. 220,000 tested, 0.95% active;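 active = confirmed in a dose series; inconclusive = inhibition above 80% but not taken into the dose series; inactive = below 80% or under 30% at every dose of the series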;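 note: bacteria incubated seven days before Alamar blue readout; 0% = bacteria only wells and 100% = bacteria with antibiotic wells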
# RecA intein inh – Mtb RecA intein splicing inhibitors, primary screen, biochemical, fluorescence, HTS; cell-free RecA intein splicing; AID 2221, 2009; inhibition, %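 (about 9 µM by stock and volumes)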; 290,000 tested, 0.75% active; in the data active = inhibition above about 30%; inconclusive = no clear call, values can overlap the other calls;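 note: 0% = vehicle wells and 100% = reference inhibitor control wells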
# Target sequence (P9WHJ3 whole entry, looked up): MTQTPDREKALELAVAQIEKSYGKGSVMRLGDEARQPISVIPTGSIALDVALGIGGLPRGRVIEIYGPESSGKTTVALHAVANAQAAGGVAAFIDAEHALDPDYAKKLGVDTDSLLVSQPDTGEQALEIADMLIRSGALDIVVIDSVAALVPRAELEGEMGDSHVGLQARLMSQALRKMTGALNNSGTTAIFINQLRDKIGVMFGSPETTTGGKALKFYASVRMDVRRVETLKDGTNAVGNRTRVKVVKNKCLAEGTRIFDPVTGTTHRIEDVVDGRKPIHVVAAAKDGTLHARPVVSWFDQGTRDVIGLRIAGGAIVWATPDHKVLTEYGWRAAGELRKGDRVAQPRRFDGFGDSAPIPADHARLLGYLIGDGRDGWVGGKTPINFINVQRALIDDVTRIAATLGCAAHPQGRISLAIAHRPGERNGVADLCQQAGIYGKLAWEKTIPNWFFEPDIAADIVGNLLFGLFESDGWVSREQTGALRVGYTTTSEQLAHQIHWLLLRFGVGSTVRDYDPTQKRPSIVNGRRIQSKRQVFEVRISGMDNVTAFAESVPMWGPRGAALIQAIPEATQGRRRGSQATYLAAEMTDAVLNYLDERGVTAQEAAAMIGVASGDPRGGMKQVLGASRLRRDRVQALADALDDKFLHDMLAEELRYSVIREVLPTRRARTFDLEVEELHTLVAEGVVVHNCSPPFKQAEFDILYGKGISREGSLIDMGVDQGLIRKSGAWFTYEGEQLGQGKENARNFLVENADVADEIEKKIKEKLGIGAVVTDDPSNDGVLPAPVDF
# YopH PTP inh – YopH tyrosine phosphatase inhibitors, primary screen, biochemical, fluorescence Ex485/Em525; AID 898, 2007; inhibition, %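 (about 10 µM by stock and volumes)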; YopH tyrosine phosphatase [Yersinia enterocolitica]; 140,000 tested, 0.16% active;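 active = inhibition of 50% or more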;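 note: controls were vehicle for no effect and minimum signal wells for full effect; inactives centre near -20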
# Arbovirus anti repeat – recorded beside Arbovirus anti, whose call it bears; inhibition, %; measured here: 10K subset replicate screen; many hits read low in the repeat;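 first of two repeat runs on a subset; 0% = infected and 100% = uninfected wells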
# Active calls of the source: *; ? = inconclusive; / = not tested or not shown; & = joins results of further samples. Not all compounds are listed. The share of hits here may be higher or lower than overall.
SMILES,Mtb betalactam,Arbovirus anti,Mtb growth,RecA intein inh,YopH PTP inh,others
CCCOc1ccc2c(=O)c(-c3cc(C(=O)OC)oc3C)c(C)oc2c1,7,-3,-1%,7.0,-48,
O=C(Nc1cccnc1)C1(c2ccc(Cl)cc2)CCCC1,-8,9,-2%,3.2,-13,
O=C(NCc1ccccn1)c1cc(Cl)ccc1OCc1ccccc1,5,/,/,0.5,/,
O=C(c1n[nH]c(=O)c2ccccc12)N1CCOCC1,-8,4,-8%,/,-39,
COc1ccc(C(=O)/C(C#N)=N/Nc2ccccc2[N+](=O)[O-])cc1,8,-8,4%,1.8,-21,
O=C1N(c2ccccc2)c2ccccc2C1(O)C(F)(F)F (stereo not given),-1,/,/,-0.5,/,
COc1ccc(NC(=O)Cc2c(O)c3ccccc3[nH]c2=O)cc1,16,10,-5%,0.4,-22,
COc1ccc(NS(=O)(=O)c2cccc(-c3n[nH]c(=S)n3Cc3ccccc3)c2)cc1,-2,2,-1%,4.0,/,
Cc1ccc(CNC(=O)CCS(=O)(=O)c2ccc(Br)s2)cc1,1,1,-1%,-1.0,-13,
CCCCCCc1nc(C(N)=O)c2[nH]c(=O)n(-c3ccc(OCC)cc3)c2n1,?,/,/,-1.9,/,
CCCN(CCC)c1nc(-c2ccccn2)nc2ccccc12,82,/,/,7.2,/,
N#Cc1cc2c(nc1SCC(N)=O)CCCCC2,13,-2,5%,3.7,-5,
COc1ccc(CCNC(=O)CC2C(=O)NCCN2CC(C)(C)C)cc1 (stereo not given),-8,6,-10%,1.1,/,
CCC(C)c1ccc(OCC(=O)Nc2ccc3c(c2)C(=O)NC3=O)cc1 (stereo not given),0,/,/,-0.3,/,
N#CC(Cc1cccc(CC(C#N)(c2ccccc2)c2ccccc2)c1)(c1ccccc1)c1ccccc1,-1,/,/,-0.8,/,
CSc1ccccc1NC(=O)CN(C)C(=O)Cc1c(F)cccc1Cl,1,/,/,1.0,/,
COc1ccc(NC(=O)COC(=O)c2ccc(S(=O)(=O)N(C)c3ccccc3OC)cc2)cc1OC,0,-4,2%,4.0,/,
O=C(Cc1ccc(Cl)cc1)N/N=C/c1cccs1,-4,3,4%,-0.1,/,
CC(=O)N1c2ccccc2C(C)=CC1(C)C,-9,/,-5%,-0.7,/,
CC(=O)C(C(C)=O)c1cc(NS(=O)(=O)c2ccccc2)ccc1NS(=O)(=O)c1ccccc1,7,/,/,-0.7,/,
Cc1c(-n2c(-c3ccccc3)nc3ccccc3c2=O)c(=O)n(-c2ccccc2)n1C,-1,-4,6%,-1.5,/,
O=C(N/C(=C/c1cccnc1)C(=O)N1CCOCC1)c1ccco1,3,-2,-2%,0.5,-38,
Cc1ccc2oc(C(=O)N3CCC(O)(c4cccc(C(F)(F)F)c4)CC3)c(C)c2c1,6,/,/,2.6,/,
CN(C)c1cc[n+](CC(=O)Nc2ccc(OC(F)F)cc2)cc1,8,/,10%,1.7,/,
O=C(COc1cccc2cccnc12)N/N=C1\SCC(=O)N1Cc1ccccc1,3,5,-12%,1.3,-23,
O=C(OCC(=O)N1CCOCC1)c1ccccc1Br,6,/,/,-0.5,/,
COc1ccc(OC)c(NC(=S)NCCCN2CCOCC2)c1,2,6,9%,-0.2,-8,
Cc1ccc(-n2c(Cc3cccn3C)nnc2SCC(=O)Nc2cc(C)on2)cc1,-14,-1,-9%,0.8,-44,
O=S(=O)(c1ccccc1)c1nc(NCc2cccnc2)sc1Cl,-5,-30,1%,5.5,/,
O=C(CSc1ccc([N+](=O)[O-])cn1)Nc1nccs1,81,/,/,-1.1,/,
CCN(CC)C(=O)c1ccc(-c2ccccc2)cc1,3,-6,-13%,4.6,-22,
O=C(CCN1C(=O)[C@@H]2Cc3ccccc3CN2C1=O)Nc1cccc(F)c1,0,/,/,2.4,/,
CS(=O)(=O)c1ccc(C(=O)NC2CCOC2=O)cc1 (stereo not given),-16,12,-7%,5.5,-22,Arbovirus anti repeat=3
CC(C)N(Cc1ccccc1)C(=S)Nc1ccccc1F,-11,/,-10%,3.1,/,
Cc1ccc(-n2ncc3c(SCc4cccc(C)c4)ncnc32)cc1,1,11,-8%,-4.6,-33,
C/C(N)=C(/C#N)C(=O)CSc1nnc(Nc2cccc(C)c2)s1,-5,9,5%,0.8,-18,
CCn1c(=O)c(=O)[nH]c2cc(C(=O)N3CCN(Cc4ccc5c(c4)OCO5)CC3)ccc21,-2,3,4%,-0.5,/,
CC(=O)Nc1cc2cc(NS(=O)(=O)c3ccc(C)cc3)ccc2oc1=O,-4,/,-1%,-2.2,/,
COc1ccc(C(C)=O)cc1COC(=O)c1c(C)noc1C,-3,-10,-5%,2.6,-32,
Cc1cc(C)cc(CC2CC(=O)N(c3ccc([N+](=O)[O-])cc3)C2=O)c1 (stereo not given),-2,/,/,-0.6,/,
O=C(NCC1CCCCC1)C12CN(Cc3ccccc3)CC1C(c1cccc([N+](=O)[O-])c1)=NO2 (stereo not given),-6,8,4%,4.2,23,
Oc1cccc(C(O)CNCc2ccc(-c3ccccc3)cc2)c1 (stereo not given),2,-27,11%,0.8,/,
CC(=N\Nc1ccccc1)/C(=N/O)C(=O)Nc1ccccc1,-5,-8,0%,0.5,-56,
COc1cccc(NC(=S)N(Cc2ccc(C)cc2)Cc2ccccn2)c1,-1,1,6%,3.3,/,
CC1(C)CC(=O)c2cc(OCC(=O)N3CCCCCC3)ccc2O1,/,5,-9%,-5.7,13,
Cc1cc(C)n2nc(C(=O)N3CCN(Cc4ccc5c(c4)OCO5)CC3)nc2n1,-11,-6,-6%,-1.0,/,
COc1ccc(-c2cc(C)no2)cc1S(=O)(=O)NCCc1ccco1,4,/,/,2.1,/,
c1ccc2c(-c3ccncc3)c[nH]c2c1,-1,18,6%,3.8,-2,
Cc1ccc(-c2cnco2)cc1,-1,/,-5%,-2.2,/,
CCc1ccccc1NC(=O)NC1CCCCCCC1,1,/,/,0.4,/,

# Part of the list above in order of formula weight, largest number first:
SMILES,Mtb betalactam,Arbovirus anti,Mtb growth,RecA intein inh,YopH PTP inh,others
COc1ccc(NC(=O)COC(=O)c2ccc(S(=O)(=O)N(C)c3ccccc3OC)cc2)cc1OC,0,-4,2%,4.0,/,
Cc1ccc2oc(C(=O)N3CCC(O)(c4cccc(C(F)(F)F)c4)CC3)c(C)c2c1,6,/,/,2.6,/,
Cc1c(-n2c(-c3ccccc3)nc3ccccc3c2=O)c(=O)n(-c2ccccc2)n1C,-1,-4,6%,-1.5,/,
CCCOc1ccc2c(=O)c(-c3cc(C(=O)OC)oc3C)c(C)oc2c1,7,-3,-1%,7.0,-48,
O=C(OCC(=O)N1CCOCC1)c1ccccc1Br,6,/,/,-0.5,/,

# Returning to the listing with the three entries that preceded the break.
SMILES,Mtb betalactam,Arbovirus anti,Mtb growth,RecA intein inh,YopH PTP inh,others
c1ccc2c(-c3ccncc3)c[nH]c2c1,-1,18,6%,3.8,-2,
Cc1ccc(-c2cnco2)cc1,-1,/,-5%,-2.2,/,
CCc1ccccc1NC(=O)NC1CCCCCCC1,1,/,/,0.4,/,
CCOC(=O)c1c(NC(=O)CCS(=O)(=O)c2ccccc2)sc2c1CCN(C(C)C)C2,12,/,/,1.5,/,
Cc1ccc(CNC(=O)C2CCCN2C(=O)Nc2ccc(F)cc2)cc1 (stereo not given),-29,/,/,0.9,/,
COc1cccc(CNc2nc(SC)ncc2CO)c1,3,3,3%,-0.2,-44,
COc1cccc(-n2c(SCc3c(C)noc3C)nnc2-c2cccc(S(=O)(=O)N(C)C)c2)c1,1,-6,5%,1.0,-21,
Cc1ccc(C(=O)OCC(=O)N2CC(C)CC(C)C2)cc1S(=O)(=O)N1CCOCC1 (stereo not given),-7,/,/,1.7,/,
Cc1[nH]n(-c2ccccc2)c(=O)c1/C=N/N(C)c1ccccc1,94,-14,?,-3.9,-19,
C#CCOc1ccc(Cl)cc1/C=N/O,1,6,-1%,-0.5,12,
O=C(NCCN1C(=O)C2C3C=CC(C3)C2C1=O)Nc1cccnc1 (stereo not given),1,0,-3%,0.4,-26,Arbovirus anti repeat=4
CC(C)/C=N/NC(=O)c1ccc(Cl)cc1,-2,0,-4%,-0.3,-13,
O=C1CN(C(=O)CSc2nc3ccccc3c(=O)n2CC2CCCO2)c2ccccc2N1 (stereo not given),0,-3,6%,-0.8,/,
Oc1ccccc1/C=N/[n+]1ccccc1,-6,/,-3%,2.1,/,
COc1ccc(-n2c(Cc3cccn3C)nnc2SCC(=O)Nc2cccc(Cl)c2)cc1,1,36*,9%,3.3,-29,Arbovirus anti repeat=0.0*
CCCCOc1ccc(NC(=O)CN2CCN(Cc3ccccc3)CC2)cc1,87,/,/,-2.1,/,
Cc1ccc(Cn2nnc3c(=O)[nH]c(C4CCN(S(=O)(=O)c5ccccc5F)CC4)nc32)cc1,5,/,/,9.3,/,
Cc1ccc(NC(=O)c2ccccc2NC(=O)Cc2ccccc2)cc1,7,-7,12%,0.7,-37,
CCN1CC(C)C(O)(c2ccccc2)CC1C (stereo not given),-8,5,0%,-1.6,-10,
O=S(=O)(c1cnc(Cl)c(Br)c1)N1CCCCCC1,2,6,4%,2.2,-14,
CN1CC=C2C(C#N)=C(N)C(C#N)(C#N)C(c3ccncc3)C2C1 (stereo not given),-6,8,-10%,-75,-38,
Cc1ccc(-n2c(-c3ccco3)nc3nc4ccccc4nc32)cc1,-3,-1,3%,-14,-37,
COc1cc(C2Nc3ccccc3NC3=C2C(=O)CC(C)(C)C3)cc(OC)c1OC(C)=O (stereo not given),-5,/,/,-2.8,/,
CNc1nc(-c2cccs2)cc(C(F)(F)F)c1C#N,2,/,-3%,/,/,
CN(C)[C@@H]1C(=O)C(C(N)=O)=C(O)[C@@]2(O)C(=O)C3=C(O)c4c(O)cccc4[C@@](C)(O)C3[C@H](O)C12 (stereo not given in full),6&76,/,/,-8.6,/,
Cc1ccc2c(c1)N(CC(=O)N1CCCC1)C(=O)C(C)O2 (stereo not given),-7,/,/,-2.7,/,
c1ccc2c(c1)OC(CCCN1CCCCC1)c1ccccc1S2 (stereo not given),17,21,14%,3.1,4,
CC(C)C(=O)N=c1sc2cccc(F)c2n1C,-5,/,0%,-2.9,/,
CCCC(CCC)C(=O)NC1CCN(Cc2ccccc2)CC1,-8,0,4%,5.8,/,
CCNC(=O)c1ccc2c(c1)C1C3CCC(C3)C1C(c1ccccc1)N2 (stereo not given),80,-20,14%,-1.4,-8,
CSCCC(NC(=O)C1CC1)c1nc2ccccc2[nH]1 (stereo not given),-6,1,-1%,0.2,-6,
Cc1ccc(C)c(SCC(=O)Nc2cccnc2Cl)c1,3,15,19%,-1.0,/,
CCN1CCC[C@H]1CNC(=O)c1cc(S(N)(=O)=O)ccc1OC,2,2,-12%&6%,-3.1,/,
Cc1cc(C)nc(-n2cc(C(=O)c3cc(F)ccc3O)cn2)n1,-1,-7,-4%,-6.6,-30,
COc1ccc(OC)c(N(CC(=O)NCCSCc2ccco2)S(=O)(=O)c2ccc(OC)c(OC)c2)c1,-7,/,/,-4.3,/,
CC(=O)CC1(C)OC(N)=C(C#N)C1(C#N)C#N (stereo not given),-2,4,-1%,2.0,-32,
Cc1ccc(C)c(Nc2c([N+](=O)[O-])ccc3nonc23)c1,6,/,/,-2.2,/,
COC(=O)CSc1nnc(-c2cccc(NC(=O)c3ccc(C)cc3)c2)n1C,1,2,-2%,-2.1,-24,
Cc1nn(Cc2ccccc2Cl)c2sc(C(=O)OC3CCCC3=O)cc12 (stereo not given),2,-2,-6%,12,16,
CCOc1ccc(-n2c(N)c(C(=O)NCc3ccco3)c3nc4ccccc4nc32)cc1,17,7,20%,-26,-10,
CCOc1cc(/C=C/c2ccc3cccc([N+](=O)[O-])c3n2)ccc1OCC(=O)N(C)C,12,-5,1%,-27,/,
OCC#CC[N+]1(CC#Cc2ccccc2)CCCC1,-5,-3,-1%,-0.3,/,
CN1C(C(=O)c2ccccc2)=C(N)c2ccccc2S1(=O)=O,6,-3,-21%,-2.4,/,
CC1(C)CC(=NOC(=O)c2ccccc2)CC(C)(C)N1,-4,-2,-2%,-1.0,-13,
COC(=O)CN1C(=O)C(O)(CC(=O)c2ccc(C)cc2)c2ccccc21 (stereo not given),17,2,7%,2.2,-30,
O=C(N1CCOCC1)N1CCN(S(=O)(=O)c2ccc(Cl)cc2)CC1,-4,/,/,-1.5,/,
O=C(CCCOc1ccc(Cl)cc1Cl)Nc1ccccc1C(=O)O,11,/,13%,1.0,/,
N=C1C(c2nc3ccccc3[nH]2)=C(O)CN1C1CCCCC1,5,/,0%,/,/,
